Screening data from PubChem BioAssay.
VACV Venus inh: vaccinia inhibition (Venus reporter); hit rate 0.46% among 330,000; Potency, µM (highest dose often 36.5 µM), inactives show at the top dose activity change, negative = inhibition, hits mostly inhibitors; Vaccinia virus Venus reporter expression, fluorescence; active means well fitted inhibition curve with a large enough effect; inconclusive means small, poorly fitted or top-dose-only effect; inactive means no such curve, though single readings can be large or run the other way; tested in A549 cells; also: nearly all actives have a fitted effect of over 30% in size; inactives centre near -10
VACV mCherry inh: inhibitors of vaccinia virus infection (mCherry reporter signal); Vaccinia virus mCherry reporter infection, fluorescence; about a quarter of the inactives have no number; Potency, µM (top dose mostly 36.5 µM), inactives show at the top dose activity change, negative = inhibition, most hits filed as inhibitors; hit rate 0.63% among 310,000; AID 720579; active = well fitted inhibition curve with a large enough effect; inconclusive = small, poorly fitted or top-dose-only effect; inactive = no such curve, though single readings can be large or run the other way; tested in A549 cells; also: nearly all actives have a fitted effect of over 35% in size; inactives centre near -10
The depositor's hits bear a star; i = inactive; ? = inconclusive; · = not tested or not shown; [ ] = remark or other dose. % is scaled to controls: 0 for no effect and ±100 for the full control effect; potency is read from the fitted curve at half-maximal effect.

Second line of a record: VACV Venus inh, VACV mCherry inh
COc1c(C)cc(C(O)c2ncc(-c3cccc(C(F)(F)F)c3)[nH]2)cc1C (centres undefined)
→ ?, ?
CC(=O)/C(=C(/O)c1ccccc1)c1nc2ccccc2[nH]1
→ -10%, -3%
CCN(CC)C(=O)CSc1ncnc2sccc12
→ -12%, i
COc1cccc(C(=O)N2CCC(n3nccc3NC(=O)C(OC)c3ccccc3)CC2)c1 (centres undefined)
→ 1%, i
CC(=O)Nc1ccc(S(=O)(=O)NCC2CC3CCC2C3)cc1 (centres undefined)
→ -13%, i
COc1cc(CCC(=O)Nc2sccc2C#N)cc(OC)c1OC
→ -5%, -8%
CCOc1ccc2nc(NC(=O)C(CC)Sc3nc(C)cc(=O)[nH]3)sc2c1 (centres undefined)
→ -17%, ·
O=C(NN1CCN(Cc2ccccc2Cl)CC1)c1ccc(Br)cc1
→ -28%, -24%
CC1CCCCC1NC(=O)c1cc2ccccc2o1 (centres undefined)
→ -10%, -10%
Cc1ccsc1CN(C(=O)COc1cccc(C)c1C)C1CCS(=O)(=O)C1 (centres undefined)
→ -4%, -12%
COc1cccc(/C=C2/SC(=S)N(CC(=O)NNC(=O)c3ccccc3O)C2=O)c1
→ 190%[activator], -1%
Cc1ccc(C)c(N2CCN(c3nc4ccccc4c(=O)n3Cc3ccccc3)CC2)c1
→ -12%, -27%
FCCCOc1ccc(-c2ccnc3ncnn23)cc1
→ 2%, -16%
O=S1(=O)CCC(NC(=S)N2CCCCCC2)C1 (centres undefined)
→ -3%, i
Cc1cc(NC(=O)CSc2nnc(-c3cccnc3)n2Cc2ccccc2)no1
→ -2%, -16%
C[C@H]1CCCCO[C@H](CN(C)C(=O)Nc2ccc(F)cc2)[C@@H](C)CN([C@@H](C)CO)C(=O)c2cc(NC(=O)Nc3ccc4c(c3)OCO4)ccc2O1
→ ?, -3%
COc1ccc(N2C(=O)CCSC23C(=O)N(Cc2ccc(F)cc2)c2ccccc23)cc1 (centres undefined)
→ ?, 11µM*
O=[N+]([O-])c1cccc(Cl)c1NCCNc1ncc(C(F)(F)F)cc1Cl
→ -18%, -25%
CNC(=O)CC12CC3CC(CC(C3)C1)C2
→ -14%, -13%
COc1ccc(C(=O)/C(=C/c2cccs2)c2nc3ccccc3o2)cc1
→ -10%, -12%
O=C(Nc1ccccc1N1CCCC1)c1ccccc1F
→ -1%, -6%
CCCCN1CC(COCc2ccccc2)Oc2cccc(Oc3cc(C)c(C)c(C)c3)c2S1(=O)=O (centres undefined)
→ -7%, i
Cc1ccccc1NC(=O)Cn1nc(-c2ccccc2)nc(Cc2ccccc2)c1=O
→ -10%, -14%
CCN(CC)CCNC(=O)c1ccc2c(=O)n3nc(Nc4cccc(Cl)c4C)sc3nc2c1
→ -19%, -19%
Cc1cccc(-n2c(C)nc3cc(C(=O)N4CCC5(CC4)OCCO5)ccc32)c1
→ ?, -20%
CCOC(=O)c1c(N)c(C#N)c2n1CCCCC2
→ -24%, -25%
CCCCC(=O)OCCNC(=O)c1cc2ccccc2oc1=O
→ -10%, ·
CSCCC(C(=O)Nc1c(C)cccc1C)N1CCC(Cc2ccccc2)CC1 (centres undefined)
→ -11%, 14%
Cc1ccc(-n2ncc3c(NCc4ccccc4)ncnc32)cc1Cl
→ -8%, -6%
COc1ccccc1NC(=O)C1=C(C)NC(SCC(=O)Nc2ccc(C(=O)O)cc2)=C(C#N)C1c1cccs1 (centres undefined)
→ -3%, 57%[activator]
COc1ccccc1NC(=O)CCN1CC(C)OC(C)C1 (centres undefined)
→ -4%, -7%
CCC(C)(C)NC(=O)c1ccccc1Oc1ccccc1
→ -9%, i
CCOc1cc(NC(=S)NCCCOC)c(OCC)cc1NC(=O)c1cccs1
→ -13%, -19%
Cc1oc(-c2ccc(C(=O)Nc3ccc(F)cc3F)cc2)nc1COc1ccccc1
→ -20%, i
O=c1c2ccccc2nnn1Cc1ccc(Br)cc1
→ -8%, -8%
Cc1cc(NC(=O)CCC(=O)N(CC(=O)NC2CCCC2)c2ccc(Cl)c(Cl)c2)no1
→ -6%, i
CC1CCC(NC(=O)CC(NC(N)=O)c2ccccc2Cl)CC1 (centres undefined)
→ -3%, 22%
COc1ccc(C(O)(c2ccccc2)c2ccncc2)cc1 (centres undefined)
→ -27%, -4%
O=C(NCc1ccco1)c1ccc2sc([C@@H]3O[C@H](CO)[C@H](O)[C@H](O)[C@H]3O)nc2c1
→ 4%, 14%
O=C(Nc1cccnc1)c1cc(-c2cccc(Br)c2)nc2ccccc12
→ -6%, -17%
CC(C)Cn1c(SCC(=O)N2CCN(S(=O)(=O)c3ccccc3)CC2)nc2ccccc21
→ -12%, -4%
CCOC(=O)CN1CC23C=CC(O2)C(C(=O)NC2CCCCC2)C3C1=O (centres undefined)
→ ?, -6%
N#C/C(=C\c1ccc[nH]1)C(=O)N1CCCCC1
→ -6%, -4%
COC(=O)c1cc2ccsc2n1CC(=O)N(C)c1ccccc1
→ -5%, -12%
COc1ccc(C(CNC(=O)c2ccc(OCc3csc(C)n3)cc2)N2CCCC2)cc1 (centres undefined)
→ -3%, 0%
CNC(=O)c1ccc2cc(OC)c(OC)cc2c1
→ -4%, -7%
Cc1cc(C(=O)Nc2ccc3c(c2)CCC3)ccc1[N+](=O)[O-]
→ 8%, -27%
COc1ccc(Br)cc1C(=O)Nc1ccc2oc(-c3cccnc3)nc2c1
→ -8%, -14%
O=C1CSC(=S)N1/N=C/c1ccc(O)c(O)c1O
→ 13%, -10%
Cc1cccc(C)c1OCc1cc(C(=O)N2CCCC2c2nonc2C)no1 (centres undefined)
→ -7%, i

New compounds follow:
Second line of a record: VACV Venus inh, VACV mCherry inh
COc1cccc(NC(=O)CN(C)C(=O)c2ccc3c(c2)CC(c2ccccc2)OC3=O)c1 (centres undefined)
→ -24%, i
Cn1c(C(=O)N2CCC(C(=O)NCCc3ccccc3)CC2)cc2sccc21
→ -14%, -2%
CC(Sc1ncc(C(F)(F)F)cc1Cl)C(=O)NC(N)=O (centres undefined)
→ 1%, -2%
O=C(COc1ccc(/C=N/NS(=O)(=O)c2ccccc2)cc1)N1CCOCC1
→ -12%, -12%
COc1cccc(CNc2nc3cc(-c4cccc(C(F)(F)F)c4)sc3c(=O)n2C)c1
→ -14%, i
CCN(CC(=O)Nc1ccccc1OC)C(=O)CCc1ccccc1
→ -6%, i
CC1CCCN(C(=O)c2cc3c(=O)n4ccccc4nc3s2)C1 (centres undefined)
→ 7%, -8%
CCn1c(C(=O)N2CCC(C(=O)N3CCN(c4ccccn4)CC3)CC2)cc2sccc21
→ -13%, i
O=C(NCc1ccccc1)C1=C[C@@H](c2csc3ccccc23)C[C@@H](OCc2ccc(CO)cc2)O1
→ ?, ?
CC1(C)Cc2ccccc2-c2nnnn21
→ -6%, i
COc1ccccc1-c1nnc(-c2ccc(C)cc2)o1
→ -12%, -8%
Cc1nnc(SCC(=O)N(C2CCCCC2)C2CCS(=O)(=O)C2)n1N (centres undefined)
→ -11%, -13%
CCN1CCCC1CNC(=O)c1cc2c(-c3cccc(OC)c3)nn(C)c2s1 (centres undefined)
→ -23%, ?
COc1cccc(/C=C/c2ccc3ccccc3n2)c1OC(C)=O
→ ?, ?
O=S1(=O)c2ccc(Br)cc2OC(COCc2ccccc2)CN1Cc1ccccc1 (centres undefined)
→ -4%, -10%
N#C/C(=C(/O)c1cccs1)c1nnc2n1CCCCC2
→ 1%, i
Cc1c(CC(=O)NCCc2ccc(Cl)cc2)c(=O)oc2c(C)c3occ(C(C)(C)C)c3cc12
→ -12%, -21%
Cc1ccc(N(Cc2cc(=O)[nH]c3ccccc23)C(=O)C(C)C)cc1
→ -12%, i
O=C(COC(=O)c1n[nH]c2ccccc12)c1cccc(Br)c1
→ -17%, i
CCCCN(Cc1nc2ccccc2c(=O)[nH]1)C(=O)c1nn(C)c(=O)c2ccccc12
→ -17%, -3%
O=C(C1=C[C@H](c2ccc3c(c2)OCO3)C[C@H](OCCCCO)O1)N1CCN(Cc2ccc3c(c2)OCO3)CC1
→ -19%, ?
O=C(Cn1nnc(-c2ccccc2Cl)n1)N/N=C/c1ccc2c(c1)OCO2
→ -1%, -10%
Cc1oc2ccccc2c1-c1cn2c(n1)SCC2
→ -6%, -20%
Cc1csc(Cn2c(CN(C)C)nc3ccccc3c2=O)n1
→ 0%, -6%
CCCN1CCN(C(=O)CS(=O)(=O)Cc2nc(-c3cccc(OC)c3)oc2C)CC1
→ -11%, -26%
CC(=O)Oc1ccc(C(=O)[C@H]2[C@H]3C(=O)N(c4ccc(C)cc4C)C(=O)[C@H]3[C@@H]3C=CC=NN32)cc1
→ 2%, ?
Oc1cc(NCc2cccnc2)ccc1-c1nc2ccccc2o1
→ ?, -15%
Cc1ccc(O)c(CN2CCN(c3ccccc3)CC2)c1
→ -3%, 4%
COc1cccc(/C(C#N)=C/c2c(-c3ccc(Cl)cc3)nc3c(C)cccn23)c1
→ -22%, ·
COc1cc(/C=N/NC(=O)Cn2cnc3ccccc3c2=O)ccc1O
→ -3%, -9%
CC(=O)Nc1ccc(S(=O)(=O)N2CCN=C2SCc2ccccc2C)cc1
→ -28%, ?
CC(C)C[C@H](NC(=O)OC(C)(C)C)C(=O)N[C@@H](CO)[C@H](O)[C@@H]1C[C@@H]1C(=O)N(C)C
→ -17%, i
Cc1cc(C)c2sc(NC(=O)C3=COCCO3)nc2c1
→ -27%, -16%
O=C(Nc1ccccc1Cl)c1ccc(-n2cccn2)c([N+](=O)[O-])c1
→ -9%, ?
CC(C)NCCOCCSc1ccc(Cl)cc1
→ -3%, -10%
COc1ccc(/C=N/Nc2ccc([N+](=O)[O-])cc2)cc1O
→ 1%, ?
CS(=O)(=O)N(CC(=O)N1CCCCC1)c1sc2c(c1C#N)CCCC2
→ -5%, -14%
C=CCc1cccc(/C=N/NC(=O)CNc2ccccc2)c1O
→ ?, ·
COCCN(C(=O)c1ccccc1)c1nnc(-c2cccnc2)s1
→ 1%, -14%
Cc1ccccc1-n1nnnc1SCC(=O)N(C)C1CCS(=O)(=O)C1 (centres undefined)
→ -5%, -20%
COc1cc(C2C(C#N)=C(N)Oc3n[nH]c(-c4ccncc4)c32)cc(OC)c1OC (centres undefined)
→ -3%, -12%
Cc1ccc(C)c(NC(=O)c2ccccn2)c1
→ -15%, -8%
COc1ccc(CNC(=O)CCCN2C(=O)CCn3nc(-c4cn(C)c5ccccc45)cc32)cc1
→ -9%, 0%
O=C(/C=C/[C@H]1O[C@@H](n2cnc3c(NC(=O)c4ccccc4)ncnc32)[C@H](O)[C@@H]1O)N[C@@H](CO)Cc1c[nH]c2ccccc12
→ -3%, i
COC(=O)c1cccc(S(=O)(=O)N2CCOCC2)c1
→ -11%, -13%
CCOC(=O)C1=C(C)NC(C)=C(C(=O)OC)C1c1ccco1 (centres undefined)
→ -10%, i
COc1cccc(C(=O)NC2CCCC2)c1
→ -8%, -14%
Cc1nn(Cc2ccccc2)c(C)c1NC(=O)CSc1nc(C2CC2)nc2c1cnn2-c1ccccc1
→ -11%, -14%
CCOC(=O)N(Cc1ccccc1)C(C(=O)O)C(C(=O)O)N(Cc1ccccc1)C(=O)OCC (centres undefined)
→ -4%, ·
FC(F)(F)c1cnc(Sc2ncn[nH]2)c(Cl)c1
→ -9%, i

Carrying on.
Second line of a record: VACV Venus inh, VACV mCherry inh
CC12CCC(C(=O)NCc3cccnc3)(OC1=O)C2(C)C (centres undefined)
→ -3%, ·
Cc1ccc(NC(=O)CN2C(=O)COc3ccc(S(=O)(=O)N4CCCCCC4)cc32)cc1C
→ -21%, -4%
Cc1c(NS(C)(=O)=O)cccc1-c1nc2ccccc2s1
→ -29%, -26%
COc1cccc(C(=O)Nc2cccc(C(=O)OCc3cc(=O)n4nc(C5CC5)sc4n3)c2)c1
→ -18%, -13%
O=c1c2ccccc2ncn1/N=C/c1ccccc1
→ -2%, i

Entries listed so far that have two or more sulfur atoms:
Second line of a record: VACV Venus inh, VACV mCherry inh
CCN(CC)C(=O)CSc1ncnc2sccc12
→ -12%, i
CCOc1ccc2nc(NC(=O)C(CC)Sc3nc(C)cc(=O)[nH]3)sc2c1 (centres undefined)
→ -17%, ·
Cc1ccsc1CN(C(=O)COc1cccc(C)c1C)C1CCS(=O)(=O)C1 (centres undefined)
→ -4%, -12%
COc1cccc(/C=C2/SC(=S)N(CC(=O)NNC(=O)c3ccccc3O)C2=O)c1
→ 190%[activator], -1%
O=S1(=O)CCC(NC(=S)N2CCCCCC2)C1 (centres undefined)
→ -3%, i
COc1ccccc1NC(=O)C1=C(C)NC(SCC(=O)Nc2ccc(C(=O)O)cc2)=C(C#N)C1c1cccs1 (centres undefined)
→ -3%, 57%[activator]
CCOc1cc(NC(=S)NCCCOC)c(OCC)cc1NC(=O)c1cccs1
→ -13%, -19%
CC(C)Cn1c(SCC(=O)N2CCN(S(=O)(=O)c3ccccc3)CC2)nc2ccccc21
→ -12%, -4%
O=C1CSC(=S)N1/N=C/c1ccc(O)c(O)c1O
→ 13%, -10%
Cc1nnc(SCC(=O)N(C2CCCCC2)C2CCS(=O)(=O)C2)n1N (centres undefined)
→ -11%, -13%
CC(=O)Nc1ccc(S(=O)(=O)N2CCN=C2SCc2ccccc2C)cc1
→ -28%, ?
CS(=O)(=O)N(CC(=O)N1CCCCC1)c1sc2c(c1C#N)CCCC2
→ -5%, -14%
Cc1ccccc1-n1nnnc1SCC(=O)N(C)C1CCS(=O)(=O)C1 (centres undefined)
→ -5%, -20%
Cc1c(NS(C)(=O)=O)cccc1-c1nc2ccccc2s1
→ -29%, -26%
